MT1-MMP act inh: inhibitors of human MT1-MMP activation. P50281. HT1080 RFP-PRO-GFP cells, GFP/RFP ratio fluorescence, overnight; percent of plate control window, DMSO zero. GFP/RFP ratio change, % at 20 µM. actives 0.061% (n = 360,000). AID 651647;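 active means GFP/RFP ratio change of at least 30% with cell ATP level not reduced by more than half and red fluorescence within 50% of control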; further: strong numbers were not always called active
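system = RFP-PRO-GFP reporter HT1080 cells | dosing = 20 µM single dose, 1% DMSO | timing = overnight cell settling, then overnight compound exposure, 37 °C, 5% CO2 | read-out basis = GFP/RFP fluorescence ratio | controls = DMSO and RFP-L50D-GFP cell wells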
CSC inhib: cancer stem cell inhibition; cancer stem cell-like cells viability, luminescence; inhibition, % at 7.5 µM; actives 1.1% (n = 300,000);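 active means mean at 75% or more and at least half the replicates too; tested in HMLE shEcad cells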;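 further: 0% = median of negative and 100% = median of positive control wells; the first replicate is given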
PABP FP inh: blocks human PABP binding to poly(A) RNA; P11940; inhibition, % at 35 µM; fluorescence polarization; actives 1% (n = 290,000);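 active means 50% or more with normal probe brightness, or confirmed in later tests; about a fifth of its hits are not listed in these tables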;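 further: calls also rest on retests at 20 µM and on dose response follow-up; controls were probe without protein and protein plus probe with vehicle; some compounds called inactive have numbers as strong as hits; many hits fall short of the cut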
Rce1 inhib: inhibitors of yeast Ras-converting enzyme; Q03530; yeast membranes, quenched prenylated peptide cleavage fluorescence; calls only; actives 0.27% (n = 290,000);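 active means fall in fluorescence gain of 50% or more versus controls, with final raw signal at or below 3038400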;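 further: plate controls were neutral control wells for no effect and wells lacking membranes for full effect; tested at 10 µM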
Target sequence (Q03530 whole entry, looked up): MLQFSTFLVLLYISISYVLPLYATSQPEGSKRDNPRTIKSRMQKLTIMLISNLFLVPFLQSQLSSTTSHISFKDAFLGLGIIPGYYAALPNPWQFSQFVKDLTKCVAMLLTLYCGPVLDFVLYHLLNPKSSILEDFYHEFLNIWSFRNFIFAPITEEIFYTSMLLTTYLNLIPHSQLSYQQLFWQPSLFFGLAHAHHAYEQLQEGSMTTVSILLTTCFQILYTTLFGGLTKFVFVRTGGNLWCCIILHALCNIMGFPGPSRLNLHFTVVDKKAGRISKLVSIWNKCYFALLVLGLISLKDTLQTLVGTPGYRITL
Env fusion inh: HIV envelope-mediated fusion inhibition | HeLa-JRFL Env/CEM21 cell fusion, luciferase | inhibition, % at 12.3 µM | actives 1.1% (n = 360,000) | AID 651610;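 active means mean replicate inhibition score of at least 50 and every replicate individually at or above 50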;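 further: 0% = plate neutral controls and 100% = maraviroc near 300 nM; one replicate is shown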
UUG fidelity: alters start codon recognition fidelity in yeast; S. cerevisiae UUG-firefly luciferase reporter, luminescence/redox ratio; activity score, % at 18.7 µM; actives 0.13% (n = 350,000); AID 602363;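 active means replicate mean at a twofold rise or more, about +100% in these data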;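 further: firefly luciferase made from a UUG start codon reports start codon fidelity; reporter light over untreated wells divided by growth signal over untreated wells; some hits fall short of that in this replicate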
eIF4H FP inh: inhibitors of RNA binding by human eIF4H; Q15056; eIF4H fluorescence polarization binding assay; inhibition, % at 35 µM; actives 0.94% (n = 290,000);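 active means 50% or more with normal probe brightness, or confirmed in later tests; about a fifth of its hits are not listed in these tables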;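 further: calls also rest on retests at 20 µM and on dose response follow-up; 0% = protein and probe with vehicle and 100% = probe without protein; strong numbers were not always called active; many hits fall short of the cut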
eIF4H FP inh retest: further read-out of eIF4H FP inh, marked with its call; inhibition, %; compound at 20 µM; confirmation average;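 mean of two retest wells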
PABP FP inh retest: further read-out of PABP FP inh, marked with its call; inhibition, %; compound at 20 µM; confirmation repeats;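 mean of two retest wells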
MT1-MMP act inh RFP: recorded beside MT1-MMP act inh, whose call it bears; RFP signal change, %; measured here: RFP expression control read;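 0 = vehicle wells; hits needed this value within 50% of zero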
Active calls of the source: *; i = inactive; . = no result given. No enrichment for hits; 2.9% or so of the library scored in one or more.

SMILES	MT1-MMP act inh	MT1-MMP act inh RFP	CSC inhib	PABP FP inh	Rce1 inhib	Env fusion inh	UUG fidelity	eIF4H FP inh	others
O=C(Cn1cncn1)c1ccc(F)cc1F	1	5	14	-13	i	-4	.	8
COc1ccccc1CNC(=O)COC(=O)c1cccc(S(=O)(=O)N2CCCC2)c1	-2	2	-2	-12	.	6	-9	1
O=C(c1ccco1)N(Cc1ccc(Cl)cc1)C1CCS(=O)(=O)C1 (stereo not given)	-5	3	3	16	i	-7	-18	-7
O=C(NCc1ccccc1)c1cc(C2CCCN(C(=O)c3cccs3)C2)on1 (stereo not given)	2	5	.	.	.	10	-16	.
O=C(O)C1C2CC3C(OC(=O)C31)C2Cl (stereo not given)	0	2	-6	2	i	-51	.	-2
Cc1cc(OCC(=O)OCC(=O)N2CCCCC2)ccc1Cl	1	6	.	.	.	5	-2	.
CCOC(=O)c1c(C)[nH]c(N=Nc2ccccc2C)c1C	4	1	.	-2	i	-73	-14	-3
Cc1ccc(-c2nc(N)c3c(-c4ccc(C)cc4)nn(C(C)(C)C)c3n2)cc1	3	1	-7	1	i	.	-29	-4
COc1ccc(Nc2ncnc3ccccc23)cc1	0	-4	2	12	i	.	-9	3
COc1cc(Cl)c(C)cc1NC(=O)CSc1nnc(CN2CCCC2)o1	2	5	-4	.	.	-4	-5	.
Nc1ccc(-c2nc3ncccc3o2)cc1	4	4	0	13	i	-8	-19	-12
CCOc1cc2c(cc1OC)C(c1cccc([N+](=O)[O-])c1)NCC2 (stereo not given)	-2	3	12	-12	i	3	.	-1
O=C(NCC(c1ccco1)N1CCN(c2ccc(F)cc2)CC1)OCc1ccccc1 (stereo not given)	7	-8	11	2	i	.	-1	-2
CC(C)C(NS(=O)(=O)c1cccc2nsnc12)C(=O)NCCC1=CCCCC1 (stereo not given)	0	-3	6	1	i	28	-8	0
COc1ccc(NC(=O)NNC(=O)c2ccc(-c3ccccc3)cc2)cc1	5	3	-5	1	i	20	-17	16
CC(C)c1ccc(S(=O)(=O)N2CCC3(CC2)OCCO3)cc1	1	-3	-6	-6	i	-4	-6	-8
O=C(O)CCC(=O)N1CN2CN(C(=O)CCC(=O)O)CC([N+](=O)[O-])(C2)C1	-1	2	-4	-10	i	18	-13	-6
CC(=O)C1=C(O)CC(c2ccccc2)CC1=NCCc1ccccc1 (stereo not given)	0	-3	-13	-5	i	0	.	-5
COC(=O)[C@@H]1C[C@@]2(O)[C@H](O)[C@H](O)[C@H](O)C[C@H]2N1C/C=C/c1ccccc1	-2	6	2	12	i	8	-7	-8
COc1cc(/C=C/C(=O)N2CC(C)OC(C)C2)cc(OC)c1OC (stereo not given)	0	-1	-4	6	i	12	-11	7
Cc1cc(OCC(=O)Nc2c(C)n(C)n(-c3ccccc3)c2=O)ccc1[N+](=O)[O-]	2	-2	0	-5	i	6	2	7
O=C(CN1CCN(c2ccccc2F)CC1)NCc1ccccc1	1	-1	-8	7	i	7	-9	-3
CCOC(=O)c1ccc(NC(=O)N2CCN(c3cccc(OC)c3)CC2)cc1	1	-8	5	6	i	1	-21	-2
Cc1ccc(C(C)C)c(OCC(O)CN2CC(C)OC(C)C2)c1 (stereo not given)	-1	-3	.	0	.	-74	-11	-4
Cc1cccc(-n2cnc(C(=O)N/N=C\c3ccc(Br)cc3)c2)n1	4	2	-3	7	i	.	.	-14
Later entries:
SMILES	MT1-MMP act inh	MT1-MMP act inh RFP	CSC inhib	PABP FP inh	Rce1 inhib	Env fusion inh	UUG fidelity	eIF4H FP inh	others
Cc1ccc(OCC(=O)OCC(=O)c2ccccc2)cc1C	1	2	6	-5	i	-6	-16	-1
Cc1nc2cc(NC(=O)CS(=O)(=O)c3ccccc3)ccc2s1	0	3	-17	.	i	5	-13	.
CCC1=C(OC(=O)N(CC)CC)N2C(=O)OC(=NCCc3c[nH]c4ccccc34)[C@]2(C)[C@H]2C1=CC[C@H]1C(=O)NC(=O)[C@H]12	0	-1	10	16	i	4	5	10
CC1(C)Cc2c(sc(NC(=O)c3ccco3)c2C#N)CO1	10	2	-14	9	i	-167	-15	9
O=C(COC(=O)c1ccccc1SCC(=O)NC1CCCCC1)NC1CCCCC1	0	0	-4	-12	i	-69	8	-5
CC1CCN(c2ccccc2N)CC1	-1	0	-10	-6	i	-44	-10	-7
CCN(CC)C(=O)c1sc(NC(=O)C(Sc2ccccc2)c2ccccc2)c(C(=O)OC(C)C)c1C (stereo not given)	-31	-24	18	1	i	.	-1	-11
Cc1noc(C)c1C(=O)Nc1nccs1	-5	1	3	-4	i	10	-18	-10
CCc1nc2c(cnn2-c2ccc(Cl)cc2)c(=O)n1-c1ccc2c(c1)OCCO2	-14	-20	57	11	i	21	-12	2
Cc1ccc(-c2csc3ncnc(Sc4nnc(CN5CCCCCC5=O)o4)c23)cc1	1	-14	81*	9	i	2	-5	-1
CCOc1ccc(C(=O)Oc2cc(C)[nH]c(=O)c2[N+](=O)[O-])cc1	2	4	-5	-3	i	1	-10	-5
COc1ccc(CCCc2nnc(SCC(=O)Nc3ccc(C)c(C)c3)o2)cc1	-4	-3	5	.	i	16	.	.
Cc1nc(NC(=O)CSc2nnnn2C)sc1C	1	3	6	4	i	-77	-21	-3
COC(=O)c1cc(S(=O)(=O)N2CCN(c3ccc(OC)cc3)CC2)cn1C	0	0	2	-7	i	-3	-11	-12
CC(C(=O)Nc1nccs1)c1ccc([N+](=O)[O-])cc1 (stereo not given)	-1	-1	13	11	i	-3	2	4
Cc1c(C(=O)O)cnc2cc(-c3ccc(Cl)cc3)nn12	1	2	-7	-10	i	-13	-9	-5
CN(C)S(=O)(=O)c1ccc(S(=O)(=O)N2CCCC2)cc1	2	2	-19	4	i	-15	1	-6
Cc1snc(SCc2c(F)cccc2Cl)c1C#N	0	-1	16	0	i	-14	-20	-4
CCn1c(COc2ccc(=O)n(-c3ccccc3)n2)nnc1SCC(=O)OC	-3	-1	-6	6	i	0	-11	-9
CS(=O)(=O)N(CC(=O)Nc1ccccc1Cl)c1ccc(Cl)cc1	1	-2	-1	1	i	-9	.	-9
CCN1C(=NCCOC)N[C@@H](c2cccc(F)c2)C(C(=O)OC)=C1C	-5	-4	-12	.	i	.	-5	.
Cc1ccc(C(=O)NNC(=O)c2ccc(SCC3CCCO3)c([N+](=O)[O-])c2)cc1 (stereo not given)	12	1	-6	-8	i	.	9	2
CC(C)C(=O)Nc1ccc(Br)cc1Cl	4	1	-4	5	i	-26	.	2
COc1ccc(CN2C(=O)c3cccnc3C2Nc2ccc(C)cc2)cc1 (stereo not given)	-4	-4	1	-1	.	26	-13	4
O=C(Cc1cccs1)NCCS(=O)(=O)N1CCN(c2cccc(Cl)c2)CC1	7	-2	-11	.	i	-2	-8	.

Of the compounds above, 3 contain a COOH group.
SMILES	MT1-MMP act inh	MT1-MMP act inh RFP	CSC inhib	PABP FP inh	Rce1 inhib	Env fusion inh	UUG fidelity	eIF4H FP inh	others
O=C(O)C1C2CC3C(OC(=O)C31)C2Cl (stereo not given)	0	2	-6	2	i	-51	.	-2
O=C(O)CCC(=O)N1CN2CN(C(=O)CCC(=O)O)CC([N+](=O)[O-])(C2)C1	-1	2	-4	-10	i	18	-13	-6
Cc1c(C(=O)O)cnc2cc(-c3ccc(Cl)cc3)nn12	1	2	-7	-10	i	-13	-9	-5

Two entries drawn at random from the list so far, as already listed:
SMILES	MT1-MMP act inh	MT1-MMP act inh RFP	CSC inhib	PABP FP inh	Rce1 inhib	Env fusion inh	UUG fidelity	eIF4H FP inh	others
Cc1ccc(C(=O)NNC(=O)c2ccc(SCC3CCCO3)c([N+](=O)[O-])c2)cc1 (stereo not given)	12	1	-6	-8	i	.	9	2
Cc1ccc(-c2csc3ncnc(Sc4nnc(CN5CCCCCC5=O)o4)c23)cc1	1	-14	81*	9	i	2	-5	-1

More records.
SMILES	MT1-MMP act inh	MT1-MMP act inh RFP	CSC inhib	PABP FP inh	Rce1 inhib	Env fusion inh	UUG fidelity	eIF4H FP inh	others
CCc1ccc(C2C(C#N)=C(N)C(C#N)(C#N)C3=CCC(C(C)(C)C)CC32)cc1 (stereo not given)	-48	-9	14	32	i	.	-10	84*	eIF4H FP inh retest=78*;PABP FP inh retest=18
CCOc1ccc(N2CC(C(=O)Nc3cccc(S(=O)(=O)N4CCOCC4)c3)CC2=O)cc1 (stereo not given)	2	0	.	.	.	-27	-6	.
Cc1ccc(Nc2nc(/N=C/N(C)C)n[nH]2)cc1C	-2	-3	-1	-6	i	-18	.	-8
CC(=O)c1cc2c(=O)c3ccccc3oc2nc1C	-1	2	7	.	i	.	-13	.
Cc1c(/C(O)=C2\C(=O)C(=O)N(CCCN(C)C)C2c2ccccc2)cnn1-c1ccccc1 (stereo not given)	5	3	.	2	.	-4	.	8
O=C(CCc1ccc(S(=O)(=O)N2CCOCC2)cc1)Nc1ccc2ccccc2c1	-3	-6	8	-7	i	18	-4	-12
C=CCSC1=C(C#N)C(c2ccccc2)CC(=O)N1 (stereo not given)	1	10	-19	5	.	18	-4	3
COn1c(-c2ccc(Cl)cc2)nc2ncccc21	-3	-9	-5	10	i	-43	.	2
CC(=O)Nc1ccc(NS(=O)(=O)c2ccc3c(c2)oc(=O)n3C)cc1	0	4	-5	14	i	5	-9	7
CC1(C(=O)NS(=O)(=O)c2ccc(Cl)s2)CCN1C(=O)Cc1ccc(-c2ccccc2)cc1 (stereo not given)	1	3	.	.	.	-3	16	.
C=CCc1ccc(OCCn2nnc3ccccc32)c(OC)c1	-3	-28	-23	5	i	-44	-9	-11
CC(C)Sc1nc2c(c(=O)n(C)c(=O)n2C)n1Cc1ccc(Cl)cc1	-2	-4	7	1	i	.	-10	2
O=C(/C=C/c1ccco1)Nc1ccccc1N1CCCC1	-4	6	5	7	i	11	.	62	eIF4H FP inh retest=-4;PABP FP inh retest=4
Cc1ccc(CSCC(=O)N/N=C/c2ccc(OCC(=O)Nc3ccc(C)cc3)cc2)cc1	-3	-6	0	15	i	.	0	-31
CCCC(CCC(=O)Nc1cc([N+](=O)[O-])ccc1O)C(=O)O (stereo not given)	3	-2	-3	5	.	2	4	12
S=c1[nH]c2ccccc2n1CCOc1ccccc1	-1	4	-4	8	i	4	-19	-5
CCCNS(=O)(=O)c1ccc2c(c1)CCCN2C(C)=O	1	-2	0	-4	i	-38	6	0
COc1cc(CNc2ccccc2Oc2cc(=O)n(C)c(=O)n2C)cc(OC)c1OC	4	4	5	-2	i	-206	-1	-14
Cn1nc(C(=O)NNC(=O)CCc2ccccc2Cl)c2ccccc2c1=O	8	0	-6	.	i	5	.	.
CN(C)Cc1nc2ccccc2c(=O)n1Cc1nc(-c2cccc([N+](=O)[O-])c2)cs1	1	3	24	3	i	12	.	-19
Cc1ccc(C(=O)N/C(=C\c2ccco2)C(=O)N2CCOCC2)cc1C	-6	1	12	14	i	24	-6	13
O=S(=O)(Nc1nc2ccccc2nc1Cl)c1ccc2ccccc2c1	-3	0	4	-5	i	-3	6	32
COc1cccc(C(C)(O)c2nc(-c3cccc(F)c3)cs2)c1 (stereo not given)	-6	-19	.	.	.	28	-3	.
Cc1cccc(NC(=O)c2ccc([N+](=O)[O-])o2)c1C	-1	-9	27	23	i	15	2	7
O=C(COC(=O)c1cccnc1Cl)NC(=O)c1ccc(OC(F)F)cc1	1	0	-3	.	.	.	-12	.
COc1ccc(C(=O)Nc2ccc(C(=O)OCC(=O)c3ccccc3)cc2)cc1	4	7	0	-3	i	.	-21	-8
CC(C)N1CCN(Cc2coc3ccccc3c2=O)CC1CCO (stereo not given)	-5	1	-2	3	i	6	.	1
CSc1nnc(-c2ccco2)n1-c1ccccc1	0	0	-20	6	i	.	-6	2
Cc1cc(C(=O)N2CCN(c3ncccn3)CC2)nn1C	-3	2	-6	0	i	13	.	0
Cc1ccc(N2CC(C(=O)NC3CC3)CC2=O)cc1 (stereo not given)	1	4	-4	3	.	-13	-14	-13

Screens deposited in PubChem BioAssay by several laboratories.
